LANA-nucl inh – LANA-nucleosome interaction inhibition; FITC-LANA1-23 / chicken nucleosome fluorescence polarization; hits give low values; z-score (no concentration beside the values); 51,000 compounds, 0.3% hits;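 active = both repeat wells score below -2 in polarization z-score versus plate sample wells, excluding overly bright wells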;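 also: 100 nL library stock added to about 30 µL; numbers are from one replicate; some results filed as inactive read as strong as hits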
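Assay system: FITC-LANA peptide and chicken nucleosomes; input: 240 nM purified chicken nucleosomes (480 nM peptide binding sites), final; also added: 50 nM FITC-LANA1-23 probe; medium: TEN-BT buffer, pH 7.5; doses: pin-transferred compound, 100 nL; times: 10–45 min, room temperature; technique: fluorescence polarization; replication: duplicates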
Ab BasE inh – blocks the Acinetobacter baumannii siderophore enzyme BasE; purified BasE, fluorescence polarization binding displacement; inhibition, % (test concentration not listed); 84,000 compounds, 0.1% hits; AID 485350;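 active = both replicates above 25% with normal brightness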;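 also: 0% = negative plate control signal and 100% = positive plate control signal; stock transfer was 100 nL into about 30 µL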
Numbers without * were called inactive; / = no result given; & = joins results of further samples.

Value order – Ab BasE inh	LANA-nucl inh
> O=c1c(-c2ccccc2)c(O)nc2ccccn12
 : 2.8	/
> COc1ccc(C2c3ccsc3CCN2S(=O)(=O)c2ccc(Cl)cc2)cc1 (stereo unspecified)
 : -0.2	/
> O=C1CC(c2cccs2)CC(O)=C1C=NCCN1CCNCC1 (stereo unspecified)
 : 0.5	/
> O=C(Nc1ccc(NC(=O)c2ccccc2O)cc1)c1ccc(Cl)cc1
 : 0.1	/
> CCOc1ccc2c(c1)nc1n2C(=O)C(c2ccccc2)CS1 (stereo unspecified)
 : 1.0	-0.24
> CC1(C)CC(=O)C=C(NCC(c2cccs2)N2CCOCC2)C1 (stereo unspecified)
 : 0.2	/
> CCN(C(=O)c1noc2c1CCCC2)c1ccccc1
 : 1.2	/
> O=C(Oc1ccc2ccc(=O)oc2c1)c1cccs1
 : -0.3	0.18
> Cc1nc2c(c(C)c1CCC(=O)N1CCCC1)c(=O)n(C)c(=O)n2C
 : 0.8	-0.79
> O=C(CN1CCN(c2ccccn2)CC1)NC(=O)NC1CCCCC1
 : 0.5	/
> C[C@]12C=CC(=O)C=C1CC[C@@H]1[C@@H]2[C@@H](O)C[C@@]2(C)[C@H]1CC[C@]2(O)C(=O)COC(=O)CCC(=O)O
 : /	-0.47
> Cc1onc(-c2ccccc2)c1C(=O)OCc1cc(=O)n2cc(Br)ccc2n1
 : 1.9	/
> CC1=C(C(=O)Nc2ccc(C(=O)NCCN3CCOCC3)cc2)SCCO1
 : 1.0	0.28
> Cn1c(C(=O)NC2CCCCCC2)cc2sc(Cl)cc21
 : 1.1	0.58
> CCC(C)(C)n1nnnc1C(c1ccccc1OC)N1CCN(C(=O)c2ccco2)CC1 (stereo unspecified)
 : -1.1	0.08

(listing goes on)
Value order – Ab BasE inh	LANA-nucl inh
> N#CC1=C(N)C(C#N)(C#N)C(c2ccccc2)C2CCCC=C12 (stereo unspecified)
 : 3.5	0.78
> CCOC(=O)C1=C(N)N2C(=O)C(C)SC2=C(C(=O)OC)C1c1ccc(C)cc1 (stereo unspecified)
 : -1.6	0.056
> CCC(C1=C(O)CC(C)(C)CC1=O)C1=C(O)CC(C)(C)CC1=O
 : 2.4	/
> COC(=O)c1cn(CC(=O)Nc2ccc(S(=O)(=O)NC3=NCCCCC3)cc2)c2ccccc12
 : -1.8	/
> COC(=O)C(Cc1ccccc1)NC(=O)Nc1ccccc1OC (stereo unspecified)
 : -4.6	/
> CCNC(=S)N1CCN(S(=O)(=O)c2ccc(C)cc2)CC1
 : -2.8	/
> COc1ccc(NC(=O)CC2C(=O)N(C)C(=S)N2CCNC(C)=O)cc1 (stereo unspecified)
 : 0.1	-0.29
> O=c1[nH]nc(-c2ccc(F)cc2)cc1Cc1ccco1
 : 1.2	1.1
> O=C(CC(=O)Nc1cccnc1)Nc1cccnc1
 : /	2.8
> N#Cc1c(Nc2ccccc2)s[nH]c1=O
 : -2.4	/
> Cc1ccc(N2C(=O)c3[nH]nc(-c4ccc(Br)cc4)c3C2c2ccco2)cc1 (stereo unspecified)
 : -1.2	1.2
> Fc1ccc(Oc2cnc3ccccc3n2)cc1
 : /	3.1
> CCCn1c(SCc2ccc(Br)cc2)n[nH]c1=O
 : 0.1	/
> COC(=O)C1=CN(C2CCCCC2)C=C(C(=O)OC)C1c1cccc(C)c1
 : 0.3	-0.38
> O=C(COc1ccc(F)cc1)OCc1cc(=O)n2c3c(sc2n1)CCCC3
 : 0.1	-0.11

Compounds shown so far with two or more sulfur atoms, in the order listed:
Value order – Ab BasE inh	LANA-nucl inh
> COc1ccc(C2c3ccsc3CCN2S(=O)(=O)c2ccc(Cl)cc2)cc1 (stereo unspecified)
 : -0.2	/
> CCNC(=S)N1CCN(S(=O)(=O)c2ccc(C)cc2)CC1
 : -2.8	/

A different layout for some results above:
SMILES: N#Cc1c(Nc2ccccc2)s[nH]c1=O
  Ab BasE inh: -2.4
  LANA-nucl inh: /
SMILES: Cc1ccc(N2C(=O)c3[nH]nc(-c4ccc(Br)cc4)c3C2c2ccco2)cc1 (stereo unspecified)
  Ab BasE inh: -1.2
  LANA-nucl inh: 1.2
SMILES: Fc1ccc(Oc2cnc3ccccc3n2)cc1
  Ab BasE inh: /
  LANA-nucl inh: 3.1
SMILES: CCCn1c(SCc2ccc(Br)cc2)n[nH]c1=O
  Ab BasE inh: 0.1
  LANA-nucl inh: /

Remaining list, next part.
Value order – Ab BasE inh	LANA-nucl inh
> CCCCCN(C)CCC(O)(P(=O)(O)O)P(=O)(O)O
 : /	1.5
> COc1cc(-c2cc(=O)c3cc(OCC(=O)O)ccc3o2)cc(OC)c1OC
 : 1.1	-0.86
> CC(=O)NCCC(=O)Nc1c(C)cc(C)cc1C
 : 5.5	/
> Cc1cccn2c(=O)c3cc(C(=O)N(C)C)n(C)c3nc12
 : 12	/
> Cc1cc(C)cc(NC(=O)Nc2cc(-c3ccccc3)nn2C)c1
 : 0.6	-0.052
> COC(=O)c1[nH]c2sc3c(c2c1-n1cccc1)CCCC3
 : -0.7	-0.27
> COC(=O)c1cc2c(cc1NC(=O)c1ccc3c(=O)n4c(nc3c1)CCCCC4)OCO2
 : -1.2	-0.21
> COc1cc2c(cc1OC)C(C)N(Cc1sc3ccccc3c1C)CC2 (stereo unspecified)
 : -2.1	/
> N#Cc1ccc(CONC(=O)C23CC4CC(CC(C4)C2)C3)cc1
 : 4.2	/
> Cc1nnc(NC(=O)c2ccc(S(=O)(=O)N3CCCC3)cc2)o1
 : -4.2	0.13
> Cc1ccc2c(c1)c1c(n2CC2COC(C)(C)O2)C(=O)CCC1 (stereo unspecified)
 : 4.0	0.66
> Cc1nnc(SCC(=O)N2CCc3ccccc32)[nH]c1=O
 : 2.5	-0.78
> Cc1cc(/C=N/NC(=O)Cn2nnc(-c3ccccc3)n2)c(C)n1CC(C)C
 : 0.8	/
> CCN(CC)c1ccc(C=Nc2ccc(C#N)cc2)cc1
 : 0.1	0.33
> CCOC(=O)c1oc(-c2ccc(F)cc2)nc1C
 : 0.8	0.24

Next records:
Value order – Ab BasE inh	LANA-nucl inh
> CCN(CC)c1nnc(-n2cccc2)s1
 : 2.3	1.2
> CCOC(=O)c1[nH]nc(N)c1-c1cccc(OC)c1
 : -1.6	-0.13
> Cc1ccc(Cl)cc1N1CCN(C(=O)c2ccc3c(=O)n4nc(Nc5ccccc5)sc4nc3c2)CC1
 : -1.0	-0.8
> O=C(COc1ccc(Br)cc1)N/N=C1\SCC(=O)N1c1ccc(F)cc1
 : 4.4	0.97
> Cc1ccc(S(=O)(=O)N(Cc2ccco2)c2nc3ccccc3nc2Cl)cc1
 : -6.0	/
> CCOC(=O)C1=C(CSc2nc3scc(-c4cccs4)c3c(=O)[nH]2)NC(=O)NC1C (stereo unspecified)
 : -1.2	/
> CS(=O)(=O)c1ccc(C(O)[C@H](CF)NC(=O)C(Cl)Cl)cc1 (stereo partly specified)
 : /	-0.87
> O=C1CN(C(=O)c2ccccc2)C(=S)N1
 : 0.0	-0.15
> O=C(/C=C/Sc1nc2ccccc2o1)c1ccccc1
 : 1.3	0.22
> CC(=O)N(CCc1ccccc1)Cc1nc2ccccc2c(=O)[nH]1
 : -0.1	-0.091
> Clc1ccc(CSc2ncn[nH]2)cc1
 : 0.1	0.15
> COCCNC(=O)C1c2ccccc2C(=O)N(CCOC)C1c1c[nH]c2ccccc12 (stereo unspecified)
 : 3.3	0.3
> CCOc1ccc(C2C(C(=O)Nc3cc(C)on3)c3ccccc3C(=O)N2CCN2CCOCC2)cc1 (stereo unspecified)
 : -0.2	-0.062
> COc1ccc(C(=O)N2CCCc3ccccc32)cc1
 : -1.4	-0.71
> CCN(CC)C(=O)COc1coc(CN2CCc3ccccc3C2)cc1=O
 : 1.2	1.6

The list continues.
Value order – Ab BasE inh	LANA-nucl inh
> O=C(O)c1cc(C(=O)O)c(-c2ccccc2)c(C(=O)O)c1
 : 1.4	-0.6
> COC(=O)CSc1ncc(C#N)c(N)n1
 : -0.1	1.1
> Cc1cccc(-n2c(=O)c3[nH]c4ccccc4sc=3c2=O)c1
 : 1.6	0.28
> CCCC(CC(=O)N1CCN(c2cccc(C)c2C)CC1)n1ccnc1 (stereo unspecified)
 : -2.1	/
> COc1cc(/C=N/N2CC(=O)NC2=O)ccc1OCc1csc(C)n1
 : 0.2	/
> O=C(Nc1nnnn1/N=C/c1ccccc1F)c1ccc(F)cc1
 : -0.6	0.45
> CCOC(=O)c1c(N)oc2c(-c3ccc(CC)cc3)c3c(C(=O)OCC)c(N)oc3cc12
 : -3.2	/
> Cc1nc2c3ccccc3n(CCc3ccccc3)c2s1
 : 0.9	0.32
> COc1ccccc1CCCN
 : -12	1.9
> CC(=O)Nc1ccc(OC(=O)c2cccc(C)c2)cc1
 : -3.5	0.26
> COc1ccc(CN(C)C(=O)/C=C/c2cn(CCC#N)c3ccccc23)cc1F
 : 0.2	/
> COCc1cc(C)n(CC(=O)OC)c(=O)c1C#N
 : -3.2	0.11
> [O-][n+]1onc2c3nsnc3c(Br)cc21
 : 1.4	-1
> O=C(COC(=O)c1ccccc1SCC(=O)N1CCCC1)Nc1nnc(-c2ccccc2)o1
 : 0.2	/
> Cc1cc(-c2ccc(C)c(S(=O)(=O)N3CCc4ccccc4C3)c2)on1
 : -2.2	/

Additional structures:
Value order – Ab BasE inh	LANA-nucl inh
> Nc1cc(F)ccc1N1CCCCCC1
 : -4.2	2.5
> O=C(NCCN1CCCc2ccccc21)Nc1ccc2c(c1)OCCO2
 : -0.1	0.13
> Nc1cc2c(cc1-n1cccc1)OCCO2
 : 0.0	0.72
> O=S(=O)(c1ccccc1)C(/C=N\O)/C=C/c1ccccc1 (stereo unspecified)
 : /	1
> CN1CCC[C@H]1c1cccnc1
 : -1.4	0.14&0.18
> O=C(CCC1CCCCC1)NCCC12CC3CC(CC(C3)C1)C2
 : -0.3	/
> CC(C)C(NC(=O)Cc1ccccc1)C(=O)N1CCN(c2cccc(Cl)c2)CC1 (stereo unspecified)
 : 1.2	/
> COC(=O)C(CC(C)C)NC(=O)c1ccc(S(C)(=O)=O)cc1 (stereo unspecified)
 : -0.9	/
> CN1C(=O)/C(=C/c2ccco2)SC1=Nc1cccc(C(=O)O)c1
 : 2.1	-0.28
> O=C(Nc1ccc(C(=O)N2CCCCC2)cc1)C1CCCCC1
 : 3.7	-0.49
> O=C(O)Cc1nonc1NCn1nnc2ccccc21
 : 40*	0.61
> Cc1cc(-c2cccc(S(=O)(=O)N3CCOCC3)c2)n2c(nc3ccccc32)c1C#N
 : 1.9	/
> COc1ccc(-n2c(SCCC#N)nc3ccccc32)cc1
 : 0.7	/
> O=C(c1ccc(F)cc1)C1CCN(C(=O)NC2CCCCC2)CC1
 : -1.9	-0.16
> CS(=O)(=O)c1ccccc1
 : /	-0.26

The results go on.
Value order – Ab BasE inh	LANA-nucl inh
> C#CCn1c(=NC(=O)CN2C(=O)CCC2=O)sc2c3ccccc3ccc21
 : -8.1	-0.69
> CC1CC(C)CN(Cc2cn3c(-c4ccc(Br)cc4)nnc3s2)C1 (stereo unspecified)
 : -1.4	0.29
> CCCCc1ccc(-n2c(-c3ccc(F)cc3)coc2=O)cc1
 : 2.8	/
> CCCCn1c(O)c(N=NC(=O)c2ccccc2)c2ccccc21
 : 2.1	/
> CC(=O)Nc1cc(C(=O)O)ccc1S(=O)(=O)c1ccc(Cl)cc1
 : 0.6	-1.9
> COC(=O)c1ccc(C2C3=C(CC(C)(C)CC3=O)Nc3ccccc3N2C(=O)C(C)C)cc1 (stereo unspecified)
 : 0.7	/
> S=C=Nc1ccc(Oc2ccccc2)cc1
 : -5.5	/
> O=C(O)/C=C/C(=O)Nc1ccccc1
 : 1.4	/
> CC1=CC(=O)C(C(=O)/C=C/c2ccc3c(c2)OCO3)C(=O)O1 (stereo unspecified)
 : 12	/
> CCc1ccc2occ(CC(=O)Nc3ccc(C(=O)OC)cc3)c2c1
 : -1.5	0.25
> Cc1c(Cl)cccc1-n1c(SCC(=O)NCC2CCCO2)nc2n[nH]c(C)c2c1=N (stereo unspecified)
 : -1.2	-1.1
> O=C(O)c1cccc(Cn2c(Cl)c(/C=N/NC(=O)c3ccncc3)sc2=O)c1
 : 7.8	/
> O=C1N=C(N2CCCCC2)S/C1=C/C1=Cc2ccccc2OC1
 : 6.0	-3.1
> CCc1ccc(S(=O)(=O)N2CCn3cccc3C2c2ccc(Cl)cc2)s1 (stereo unspecified)
 : -1.3	1.3
> O=C(CCN1CCCCC1)Nc1ccccc1
 : 0.7	-0.079

Continued.
Value order – Ab BasE inh	LANA-nucl inh
> O=C(CCC(=O)N1CCSc2ccccc21)N1CCN(c2ccccc2)CC1
 : -4.3	1.8
> CC(=O)NC(C(=O)Nc1nc(-c2ccc(C)s2)cs1)C(C)C (stereo unspecified)
 : -1.6	/
> Cc1cc(-c2ccccc2)o[n+]1C
 : 2.2	/
> O=C(Nc1ccc2c(c1)OCO2)c1cn(-c2ccccc2)nc1-c1cccs1
 : -0.5	/
> O=C1Cc2cc(S(=O)(=O)NCc3ccccc3Cl)ccc2N1
 : -1.9	0.97
> CC(=O)Nc1nnc(SCC(=O)N2C(C)CCCC2C)s1 (stereo unspecified)
 : -0.1	1.1
> CCc1onc(C)c1C(=O)Nc1ccc(Br)cc1F
 : 1.1	/
> C=CCNC(=O)CN1C(=O)c2cccnc2Sc2ccccc21
 : -1.5	2.1
> Cc1ccc(CNC(=O)CC2=NS(=O)(=O)c3ccccc3N2)cc1
 : 2.8	-1.5

Screening data: PubChem BioAssay, ICCB-Longwood Screening Facility, Harvard Medical School

A portion of the library. The share of hits here may be higher or lower than overall.
